Bioassay records: PubChem, National Center for Advancing Translational Sciences (NCATS)
gsp agonist: activates gsp, the McCune-Albright syndrome mutation | AID 624287 | gsp mutant cells, cAMP HTRF, 30 min; control for the full effect not named in the record | 0.13% of 340,000 active | Potency, µM (top dose mostly 76.9 µM), for inactives: top-dose activation (cAMP increase), usual class: activators; active = well fitted activation curve with a large enough effect; inconclusive = small, poorly fitted or top-dose-only effect, or another doubt; inactive = no such curve, though single readings can be large or run the other way; cell line not stated here;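 also: phosphodiesterase inhibitor Ro 20-1724 added with compounds to block cAMP breakdown; potency is read from the fitted curve at half-maximal effect; nearly all actives have a fitted effect of over 60% in size; about a fifth of the inactives were tested at one dose only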
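Cells stably selected in G418 were plated at 2000/well, grown 16-24 hr, then given compounds in DMSO with the PDE inhibitor […] (300 uM solution added) for 30 min at 37C; cAMP was read by HTRF.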
ClpP mod: qHTS Assay for Activators of ClpP. ATP-dependent Clp protease proteolytic subunit (Bacillus subtilis (strain 168)), P80244. 1.9% of 340,000 active. Potency, µM (doses to about 57.5 µM), for inactives: at the highest dose activity change, negative = active. purified B. subtilis ClpP, FRET peptide cleavage, 20 min. AID 651965, 2013; active = well fitted falling curve with a large enough effect; inconclusive = small, poorly fitted or top-dose-only effect; inactive = no such curve, though single readings can be large or run the other way; also: potency is read from the fitted curve at half-maximal effect; the source files actives as falling curves though it sought activators and does not explain the sign; nearly all actives have a fitted effect of over 65% in size; many hits overshoot -100%
Target sequence (P80244 whole entry, looked up): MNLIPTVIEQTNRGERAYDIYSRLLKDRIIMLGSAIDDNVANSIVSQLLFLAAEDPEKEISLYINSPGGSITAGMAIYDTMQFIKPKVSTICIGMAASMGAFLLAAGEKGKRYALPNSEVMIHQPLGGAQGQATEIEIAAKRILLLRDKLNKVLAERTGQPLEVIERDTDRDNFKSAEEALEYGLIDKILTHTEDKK
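Buffer: 100 mM Tris/HCl pH8, 100 mM KCl, 0.05% low protease BSA, 2.5% glycerol, 0.01% Tween-20. ClpP 10 microg/mL final; 20 min RT; delta FRET normalized to ADEP and DMSO controls.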
Sfp PPTase inh: Sfp phosphopantetheinyl transferase inhibition. Biochemical Sfp PPTase activity, qHTS. 3.5% of 310,000 active. AID 1490. Q9F4F7. Potency, µM, without a hit: max response, negative = inhibition, usual class: inhibitors; active = well fitted inhibition curve with a large enough effect; inconclusive = small, poorly fitted or top-dose-only effect, or another doubt; inactive = no such curve, though single readings can be large or run the other way;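 also: the enzyme is Sfp with the accession as filed and its product quenches rhodamine fluorescence; potency is read from the fitted curve at half-maximal effect; 0% = enzyme reaction without inhibitor and -100% = no enzyme wells; top concentration of the series not given in the record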
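Buffer: 50 mM Hepes-Na pH 7.6, 10 mM MgCl2, 0.01% Nonidet P-40, 0.01% BSA. Enzyme 15 nM, pre-exposed to compound 15 min; substrates then added and fluorescence change tracked over 30 min.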
D2 agonist: activates the human D2 dopamine receptor | P14416 | DiscoveRx PathHunter D2 beta-arrestin, luminescence, 90 min; 100% = 57 uM dopamine signal | activation, % (concentration not given with the values) | 0.084% of 360,000 active | AID 624465; in the data active = activation above about 40%; inconclusive = about 15% to 40%; inactive = below about 15%; also: compound concentration not given in the record; the text of the record calls up to 30% inactive
Target sequence (P14416 whole entry, looked up): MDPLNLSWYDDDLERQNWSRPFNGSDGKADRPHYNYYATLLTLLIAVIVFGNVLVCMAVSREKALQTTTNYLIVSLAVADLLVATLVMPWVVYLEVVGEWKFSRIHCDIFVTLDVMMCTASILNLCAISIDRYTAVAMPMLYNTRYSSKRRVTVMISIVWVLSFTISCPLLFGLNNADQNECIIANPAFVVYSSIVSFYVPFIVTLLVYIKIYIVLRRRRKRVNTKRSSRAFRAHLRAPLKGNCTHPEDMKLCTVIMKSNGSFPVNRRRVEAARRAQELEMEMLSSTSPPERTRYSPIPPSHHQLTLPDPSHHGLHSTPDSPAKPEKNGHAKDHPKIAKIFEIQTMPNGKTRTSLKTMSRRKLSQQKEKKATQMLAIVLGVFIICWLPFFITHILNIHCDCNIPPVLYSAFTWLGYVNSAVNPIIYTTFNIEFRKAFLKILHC
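Agonist mode: compounds alone added to overnight-plated D2 PathHunter cells for 90 min at 37 C, with 57 uM final dopamine (EC100) defining full response. Beta-arrestin recruitment detected by chemiluminescent reagent, read after 1 h at ambient temperature.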
Menin-MLL FL inh: inhibitors of human menin-MLL interaction, wild-type MLL peptide; Fluorescence polarization, fluorescein-MLL peptide displacement from menin; FP activity change, % at 61.4 µM; 290,000 tested, under 10 active; inconclusive = falling polarisation curve, or a change in total fluorescence; inactive = total fluorescence flat and polarisation flat or rising; no compound was filed as active; the % refers to the polarisation; negative = inhibition;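 also: % of control where 0% means no effect; inhibitors lower the polarisation; unlabelled MLL peptide was the positive control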
PINK1 modulator: changes PINK1 expression; PINK1 immunofluorescence, high-content cytometry, 24 h; Potency, µM (highest dose often 76.6 µM), for inactives: at the highest dose activation (PINK1 increase), most hits filed as activators; 0.2% of 410,000 active; active = well fitted activation curve with a large enough effect; inconclusive = small, poorly fitted or top-dose-only effect; inactive = flat fitted curve, though single readings scatter; cell line not stated here;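 also: potency is read from the fitted curve at half-maximal effect; % of control where 0% means no effect; nearly all actives have a fitted effect of over 65% in size; a mitochondrial uncoupler was the plate control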
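Decision-based qHTS: stable cells, 24 h exposure to five compound concentrations, CCCP as control. Fixed cells stained for PINK1 plus nuclear, mitochondrial and cell markers, cytometer read.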
gsp antag: antagonizes gsp, the McCune-Albright syndrome mutation. gsp-mutant cells, cAMP HTRF, 30 min; control for the full effect not named in the record. Potency, µM (top dose mostly 76.9 µM), for inactives: top-dose activity change, negative = inhibition, usual class: inhibitors. 0.4% of 340,000 active. AID 624288; active = falling curve of any shape with a large fitted effect; inconclusive = falling curve, mostly with a smaller effect; inactive = flat or rising curve; cell line not stated here;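 also: intracellular cAMP measured with PDE inhibitor Ro 20-1724 present during compound exposure; potency is read from the fitted curve at half-maximal effect; % is scaled to controls: 0 for no effect and ±100 for the full control effect; nearly all actives have a fitted effect of over 65% in size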
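Cells in G418 medium, seeded 16-24 h, 37C; buffer exchange to DPBS + 1 mM CaCl2, 0.5 mM MgCl2, 0.05% BSA; cpds in DMSO + […] (300 uM stock), 30 min 37C; HTRF cAMP detection.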
Numbers without * were called inactive; ? = inconclusive; . = not tested or not shown; & = joins results of further samples; [ ] = dose if it differs, or a comment. Rows are unselected. About 5.1% of those tested had a hit in this group.

cpd | mol | gsp agonist | ClpP mod | Sfp PPTase inh | D2 agonist | Menin-MLL FL inh | PINK1 modulator | gsp antag
1 | COc1ccc(OC)c(NS(=O)(=O)c2ccc(-c3coc(C)n3)cc2)c1 | 18.1% | 0.4% | 8.9% | 4.5 | -1.3 | 1.9% | -0.5%
2 | CCN1CCN(CCNC(=O)Nc2ccc([N+](=O)[O-])cc2)CC1 | -5.7%[15.4 µM] | . | -0.2% | 1.9 | -4.3 | 0.3% | 6.3%
3 | Cc1ccccc1C(=O)NCCCn1ccnc1 | -26.0%[15.4 µM] | . | 12.5% | -0.4 | -0.1 | -1.9% | 1.1%
4 | O=C(CC1SC(N2CCCCC2)=NC1=O)Nc1cccc(C(F)(F)F)c1 (stereo unspecified) | 0.2% | 0.2% | -12.1% | 2.2 | 8.7 | 0.2% | -0.6%
5 | CC(=C\c1ccco1)/C=C(\C#N)C(=O)NCCc1c[nH]c2ccccc12 | -19.5% | 0.9% | 3.8% | -0.8 | 18.8 | ? | -8.3%
6 | COc1ccc(CC(=O)NCC(=O)N/N=C/c2c[nH]c3ccccc23)cc1 | -6.5% | -1.0% | -0.1% | -1.1 | -5.6 | -0.9% | -2.2%
7 | COc1ccc(C(C)=O)cc1CC(=O)NCCCn1ccnc1 | 25.2%[15.4 µM] | . | 17.5% | 0.8 | 3.2 | 1.1% | 15.9%
8 | CSCC[C@H](NC(=O)[C@H](Cc1ccccc1)n1c(=O)[nH]c2ccccc2c1=O)C(=O)N1CCC[C@H]1C(=O)O | . | -16.7% | 17.9% | -4.7 | 5.3 | -0.7% | 7.1%
9 | N#Cc1ccc(OCC(O)CN2CCC(C(O)(c3ccccc3)c3ccccc3)CC2)cc1 (stereo unspecified) | -19.2% | -0.7% | 9.9% | 0.9 | . | 3.1% | 7.5%
10 | COc1ccc(CCn2c(O)c(C3=c4ccccc4=NC3=O)sc2=S)cc1OC | -6.1% | -0.8% | 34.9%[activator] | 6.0 | 1.3 | 0.1% | 6.1%
11 | NNc1nc(-c2ccccc2)nc2sc3c(c12)CCCC3 | 6.7% | -7.7% | -4.9% | -3.1 | 0.5 | 7.2% | -15.0%
12 | CC[C@@H]1[C@H]2CCCC(=O)N3CC[C@@H](C[C@H]1O)[C@@H]23 | 16.2% | -5.2%&-3.4% | . | 0.0 | . | 1.3% | 10.6%
13 | O=C(COc1ccccc1)c1cn(CC(=O)N2CCCC2)c2ccccc12 | -2.3% | -1.3% | -2.9% | -4.3 | -7.8 | 0.1% | -6.0%
14 | CCOc1ncccc1C(=O)OCC(=O)NCc1cccs1 | 8.0% | -0.8% | . | -1.3 | . | 1.4% | 5.9%
15 | Cc1ccccc1NC(=O)NCC1CCN(Cc2cccc(Cl)c2)CC1 | 8.8% | -1.9% | 8.6% | -3.7 | 2.7 | 0.0% | 17.4%
16 | OCC[C@@H]1C[C@@H](O)[C@H](O)[C@]2(OCCCc3ccccc32)O1 | -25.0% | -0.5% | 21.3% | -1.1 | 0.1 | -0.2% | 5.6%
17 | Nc1nc(-c2ccccc2)cs1 | -3.3% | -0.1% | -3.0% | 2.1 | 2.4 | . | -0.5%
18 | O=C(CCc1ccccn1)N1CCCC(N2CCN(c3cccc(C(F)(F)F)c3)CC2)C1 (stereo unspecified) | -47.4%[inhibitor] | -2.1% | 5.1% | -4.2 | . | 0.1% | 3.6%
19 | CCOCCCN(C)C1CCN(C(=O)c2oc3ccccc3c2NC(=O)Cc2ccc([N+](=O)[O-])cc2)CC1 | ? | -3.3% | 5.5% | -5.9 | . | -0.6% | 4.8%
20 | COC(=O)Cn1c(=NC(=O)C(C)C)sc2c(C)cc(C)cc21 | -55.2% | -4.6% | 9.4% | -3.2 | -1.2 | -0.9% | -5.3%
21 | CCOc1ccccc1N(CC(=O)NC1CCCCC1)C(=O)c1nsc(Cl)c1Cl | ? | . | 12.5% | -2.6 | -2.8 | 4.4% | ?
22 | COc1ccccc1CNS(=O)(=O)c1cc(C(=O)N(C)Cc2cccnc2)c(Cl)cc1Cl | -6.2% | -1.1% | . | -3.7 | . | -0.1% | -13.8%
23 | O=C(CCNC(=O)c1ccc(Br)cc1)NC1CCCCCC1 | -4.7% | -2.7% | . | -4.8 | . | -0.8% | 4.4%
24 | O=C(CN1C(=O)NC2(CCCC2)C1=O)NNC(=O)c1ccccc1 | 4.4% | 1.0% | . | -0.5 | . | -1.1% | 17.6%
25 | COc1ccccc1Oc1ccccc1C(=O)O | 22.2% | -2.6% | 30.1%[activator] | 0.9 | 1.5 | 3.4% | 0.3%

Some of the entries above in another layout:
13. O=C(COc1ccccc1)c1cn(CC(=O)N2CCCC2)c2ccccc12
- gsp agonist = -2.3%
- ClpP mod = -1.3%
- Sfp PPTase inh = -2.9%
- D2 agonist = -4.3
- Menin-MLL FL inh = -7.8
- PINK1 modulator = 0.1%
- gsp antag = -6.0%
5. CC(=C\c1ccco1)/C=C(\C#N)C(=O)NCCc1c[nH]c2ccccc12
- gsp agonist = -19.5%
- ClpP mod = 0.9%
- Sfp PPTase inh = 3.8%
- D2 agonist = -0.8
- Menin-MLL FL inh = 18.8
- PINK1 modulator = ?
- gsp antag = -8.3%

The list continues.
entry	Molecule	gsp agonist	ClpP mod	Sfp PPTase inh	D2 agonist	Menin-MLL FL inh	PINK1 modulator	gsp antag
26	CCCCn1c(/N=C/c2c[nH]c3ccccc23)nc2ccccc21	-35.1%[inhibitor]	-0.5%	16.7%	1.1	6.5	10.3%[38.3 µM]	-21.9%
27	NCCC1CN(C(=O)OCc2ccccc2)c2ccccc21 (stereo unspecified)	3.6%	-3.2%	.	-1.9	.	10.2%	-15.7%
28	CN(CCCNC(=O)C1CCN(S(=O)(=O)c2cccc3nsnc23)CC1)Cc1ccccc1	6.3%	-0.6%	7.9%	-4.3	0.6	-1.0%	5.0%
29	O=C(C[n+]1ccccc1)N/N=C/c1ccccc1[N+](=O)[O-]	-1.0%[15.4 µM]	.	19.9%	-1.9	-5.9	1.0%	.
30	CCCCN(C)C(=O)c1nc2ccccn2c1CN1CCN(C(=O)c2cccs2)CC1	10.9%[15.4 µM]	.	15.1%	-4.2	-0.5	-0.1%	-2.9%
31	CCOC(=O)N1CCN(Cc2nc3ccc([N+](=O)[O-])cc3c(=O)n2-c2ccc(OC)cc2OC)CC1	?	.	-7.7%	6.8	7.7	2.9%	-7.0%
32	Cc1occc1C(=O)Nc1cc(S(=O)(=O)N2CCOCC2)ccc1OC(C)C	-48.3%[inhibitor]	-1.6%	.	0.3	.	-0.9%	-6.8%
33	CC(C)N1CCC1(C)C(=O)Nc1nc2ccccc2[nH]1 (stereo unspecified)	.	-0.6%	.	-2.2	.	-0.2%	.
34	Cc1cc(C)cc(C(=O)NC(=S)Nc2ccc(Cc3ccncc3)cc2)c1	-2.9%	-2.1%	-8.8%	0.6	-3.8	5.4%	-0.9%
35	CC1CN(CCCCN2C(=O)c3ccccc3C2=O)CC(C)O1 (stereo unspecified)	14.1%	.	?	-1.3	5.6	2.0%	6.3%
36	CCn1nc(C(=O)NNC(=O)COc2ccccc2C)c2ccccc2c1=O	20.2%[15.4 µM]	-12.6%	27.5%	1.7	0.4	-0.3%	-12.3%

In the list so far, 6 have a halogen:
entry	Molecule	gsp agonist	ClpP mod	Sfp PPTase inh	D2 agonist	Menin-MLL FL inh	PINK1 modulator	gsp antag
4	O=C(CC1SC(N2CCCCC2)=NC1=O)Nc1cccc(C(F)(F)F)c1 (stereo unspecified)	0.2%	0.2%	-12.1%	2.2	8.7	0.2%	-0.6%
15	Cc1ccccc1NC(=O)NCC1CCN(Cc2cccc(Cl)c2)CC1	8.8%	-1.9%	8.6%	-3.7	2.7	0.0%	17.4%
18	O=C(CCc1ccccn1)N1CCCC(N2CCN(c3cccc(C(F)(F)F)c3)CC2)C1 (stereo unspecified)	-47.4%[inhibitor]	-2.1%	5.1%	-4.2	.	0.1%	3.6%
21	CCOc1ccccc1N(CC(=O)NC1CCCCC1)C(=O)c1nsc(Cl)c1Cl	?	.	12.5%	-2.6	-2.8	4.4%	?
22	COc1ccccc1CNS(=O)(=O)c1cc(C(=O)N(C)Cc2cccnc2)c(Cl)cc1Cl	-6.2%	-1.1%	.	-3.7	.	-0.1%	-13.8%
23	O=C(CCNC(=O)c1ccc(Br)cc1)NC1CCCCCC1	-4.7%	-2.7%	.	-4.8	.	-0.8%	4.4%
